Rango release inh: inhibitors of RanGTP-induced Rango-importin beta complex dissociation; O95149+P62826; Biochemical FRET Rango-importin beta, RanGTP-induced dissociation; Potency, µM (titrated, usually from 46.1 µM), for the others: top-dose activity change, negative = inhibition; 0.071% of 340,000 active; AID 540253; active means falling FRET ratio curve, often poorly fitted, with flat reads before Ran was added; inconclusive means other falling curves, or compound fluorescence or quenching; inactive means flat or rising ratio curve;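 also: potency is read from the fitted curve at half-maximal effect; % of control where 0% means no effect; nearly all actives have a fitted effect of over 45% in size; -100% = wells without RanGTP and RCC1; the record marks most hits as doubtful in a second field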
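Compounds sat 5 min at room temperature with 0.1 uM Rango biosensor plus 0.25 uM importin beta, then FRET pre-read. RanGTP-RCC1 (0.6 uM Ran, 2mM GTP, 0.2 uM RCC1) added for 45 min, and the CFP/YFP post-read measured blocked complex dissociation.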
GLA inh pH 4.5: alpha-galactosidase A (human) inhibition, pH 4.5; purified enzyme, 4-MU-alpha-Gal fluorescence, pH 4.5; P06280; activity change, negative = inhibition, % at 105 µM; 230,000 tested, under 10 active; inconclusive = small, poorly fitted or top-dose-only inhibition, or a rising curve; inactive = flat fitted curve, though single readings scatter; no compound was filed as active;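 also: 0% = full activity with enzyme and -100% = basal without enzyme; dose as in the result columns while the protocol names 77 µM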
miR-21 FLuc: raises the signal of a miR-21 reporter | 340,000 tested, under 10 active | Potency, µM (highest dose often 38.3 µM), for inactives: top-dose reporter change, positive = more light | HeLa miR-21 FLuc reporter, luciferase, 48 h; active = well fitted rising curve with a large enough effect; inconclusive = small, poorly fitted or top-dose-only effect; inactive = no such curve, though single readings can be large or run the other way;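 also: % of control where 0% means no effect; miR-21 action dims this reporter so a rising signal means less miR-21 action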
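HeLa cells endogenously expressing miR-21, stably carrying CMV-driven firefly luciferase with a downstream miR-21 binding site, 2000 cells/well. Titrations up to approximately 40 uM, 48 hours; luciferase luminescence read.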
Rango complex inh: prevents formation of the Rango-importin beta complex. 0.031% of 340,000 active. Rango CFP/YFP FRET sensor + importin beta, 45 min. Q14974. AID 540263. Potency, µM (doses to about 92.2 µM), inactives show at the highest dose inhibition of complex formation; active = rising FRET ratio curve, often small or poorly fitted; inconclusive = mostly compound fluorescence or quenching in the first reads; inactive = flat curves in all reads;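 also: potency is read from the fitted curve at half-maximal effect; 0% = DMSO wells and 100% = buffer wells lacking importin beta; nearly all actives have a fitted effect of over 15% in size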
Target sequence (Q14974 whole entry, looked up): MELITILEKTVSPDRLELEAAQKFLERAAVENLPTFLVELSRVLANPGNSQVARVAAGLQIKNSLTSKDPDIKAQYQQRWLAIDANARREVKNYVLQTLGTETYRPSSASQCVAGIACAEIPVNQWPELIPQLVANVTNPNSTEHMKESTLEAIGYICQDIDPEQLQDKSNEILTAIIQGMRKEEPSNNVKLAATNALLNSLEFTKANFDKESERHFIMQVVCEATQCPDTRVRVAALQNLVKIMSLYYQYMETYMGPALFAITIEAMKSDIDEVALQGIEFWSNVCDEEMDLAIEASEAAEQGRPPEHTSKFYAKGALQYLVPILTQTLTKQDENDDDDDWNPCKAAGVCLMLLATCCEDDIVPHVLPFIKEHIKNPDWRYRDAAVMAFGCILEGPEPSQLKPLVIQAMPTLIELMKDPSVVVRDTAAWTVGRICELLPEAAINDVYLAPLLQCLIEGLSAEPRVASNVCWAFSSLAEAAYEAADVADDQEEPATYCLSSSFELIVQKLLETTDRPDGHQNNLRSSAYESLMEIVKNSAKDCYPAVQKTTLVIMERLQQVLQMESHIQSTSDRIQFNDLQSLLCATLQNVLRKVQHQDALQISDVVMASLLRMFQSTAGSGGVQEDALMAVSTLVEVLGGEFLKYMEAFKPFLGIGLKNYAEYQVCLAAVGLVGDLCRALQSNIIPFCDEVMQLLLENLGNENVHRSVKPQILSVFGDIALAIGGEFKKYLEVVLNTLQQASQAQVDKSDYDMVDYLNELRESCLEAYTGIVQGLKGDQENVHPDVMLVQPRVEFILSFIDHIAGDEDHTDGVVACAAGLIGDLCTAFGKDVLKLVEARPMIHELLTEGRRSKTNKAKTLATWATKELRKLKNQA
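FRET biosensor Rango (snurportin 1 IBB between N-terminal EYFP and C-terminal Cerulean), 50 nM in PBS/1 mM DTT/0.02% Tween-20/0.1% BSA, preincubated 5 min RT with compound; 0.125 microM importin beta added, 45 min RT, CFP/YFP FRET ratio read.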
* hit, by the source's call; ? = inconclusive; . = no result given; & = joins results of further samples; [ ] = dose if it differs, or a comment. Some of the compounds tested; rates above refer to the full screens.

SMILES	Rango release inh	GLA inh pH 4.5	miR-21 FLuc	Rango complex inh
Cc1cccc(NS(=O)(=O)c2cccc3nonc23)c1	-12%	-7	-4%	0.7%
CC(Oc1ccccc1)C(=O)NCc1cccnc1 (stereo not drawn)	5%	-4	0%	-0.9%
Cc1cccc(NC(=O)CSc2nnc(CNC(=O)c3cccs3)o2)c1C	-4%	6	9%	-1.2%
O=C(/C=C/c1ccc(OCCCF)cc1)N1CCN(Cc2ccccc2)CC1	7%	.	-1%	2.4%
CCC1Oc2ccccc2N(CC(=O)NC2CCCCC2)C1=O (stereo not drawn)	-3%	.	-1%	-1.0%
COC(=O)c1cc2oc(C)cc2n1CC(=O)N(C)c1ccccc1	16%	0	-7%	-3.2%
N#Cc1nc(COc2ccc(F)cc2)oc1N1CCCC1	15%	1	-20%	-0.3%
Cc1ccc(N(C(=O)CCC(=O)Nc2cc(C)on2)C(C(=O)NC2CCCC2)c2ccncc2)cc1 (stereo not drawn)	1%	-4	-7%	-0.2%
COc1ccc(C2=C(C#N)C(=O)OC2)cc1	-10%	-2	12%	?
CCCCC(NC(=O)c1cccc(Br)c1)C(=O)O (stereo not drawn)	-13%	3	0%	-2.3%
COC(=O)[C@@]12CCCCN1[C@H](c1ccc(-c3ccc(F)cc3)cc1)[C@@H]1C(=O)N(C)C(=O)[C@@H]12	6%	.	.	-0.4%
CCOC(=O)N1CCC(N2CCN(S(=O)(=O)c3ccc([N+](=O)[O-])cc3)CC2)CC1	-3%	1	11%	0.3%
COc1ccc(-n2c(SCC(N)=O)nnc2-c2cccnc2)cc1	9%	-3	-10%	3.1%
O=C(O)C1CCCN(S(=O)(=O)c2ccc(-c3ccc(=O)[nH]n3)s2)C1 (stereo not drawn)	1%	.	1%	-0.3%
NC(=O)CSc1nnc(Cc2csc(Nc3ccccc3)n2)n1Cc1ccccc1	-10%	0	-1%	-2.5%
O=C(COC(=O)COc1ccccc1)Nc1ccc(Br)cc1Br	18%	.	.	0.3%
COc1ccc(S(=O)(=O)Oc2ccccc2C(N)=O)cc1	0%	.	.	0.2%
COCCN1CSC(=S)N(Cc2ccco2)C1	-17%	-1	-2%	-3.7%
CN(c1ccccc1)S(=O)(=O)c1cccc(NC(=O)c2cc3ccccc3oc2=O)c1	-15%	22	-57%	?
Cc1cc(C)c(C(=O)COC(=O)Cn2nc(-c3ccccc3)oc2=O)cc1C	5%	.	.	-5.2%
Cc1cccc(-c2nc(CS(=O)CC(=O)NCCc3ccc(Cl)cc3)c(C)o2)c1 (stereo not drawn)	-3%	.	8%	-4.2%
O=C(N/N=C/c1ccoc1)c1ccc(Cl)cc1	2%	.	4%	-5.6%
N#Cc1cc2c(nc1SCc1cccnc1)CCCC2	2%	-7	-29%	-2.1%
O=C(COC(=O)c1ccc2ncsc2c1)Nc1ccccc1Cl	2%	.	.	-1.0%
COc1cccc(CC(O)CC2c3c(cc4c(c3OC)OCO4)CCN2C)c1 (stereo not drawn)	-24%	.	.	3.3%
SMILES	Rango release inh	GLA inh pH 4.5	miR-21 FLuc	Rango complex inh
COc1ccc(N=C2SCC(c3ccc([N+](=O)[O-])cc3)=NN2CCO)cc1	8%	-5	2%	0.9%
CCOc1ccc(/C=N/NC(=S)NC2CC3CC2C2C=CCC32)cc1 (stereo not drawn)	15%	-11	0%	5.1%
O=C(CSc1ccc(F)cc1)Nc1ccccc1N1CCOCC1	11%	.	1%	0.3%
O=C(/C=C/c1ccccc1)c1ccccn1	?	-12	-31%	?
COc1ccc(/C(C)=N/NC(=O)c2nnn(-c3nonc3N)c2-c2cccs2)cc1OC	30%	.	-2%	0.6%
CC(=O)Nc1sc2c(c1C(c1ccncc1)N1CCOCC1)CCCC2 (stereo not drawn)	10%	2	-1%	-6.2%
CN(CC(=O)Nc1ccc(F)c(F)c1F)C(=O)c1cc(S(=O)(=O)N(C)C)ccc1N1CCCC1	-2%	.	.	0.2%
CCc1ccccc1NC(=O)NC1CCCCC1	-14%	-8	-3%	-2.6%
CCOC(=O)CCCCCC(=O)Nc1ccc2c(c1)C(=O)N([C@H](C)CO)C[C@@H](C)[C@H](CN(C)S(=O)(=O)c1cn(C)cn1)O2	19%	.	.	-3.5%
Cc1ccccc1SCC(=O)Nc1cc(C(F)(F)F)ccc1N1CCOCC1	12%	.	.	1.0%
O=C(NCc1ccco1)c1cccc(NS(=O)(=O)c2cccc(F)c2)c1	-18%	-4	-1%	0.0%
Cc1ccnc(SC2CC(=O)N(c3ccc(Br)cc3)C2=O)n1 (stereo not drawn)	-18%	.	4%	0.7%
Cc1cccc(-c2nc(CS(=O)CC(=O)NC3CCCC(C)C3C)c(C)o2)c1 (stereo not drawn)	-20%	.	-1%	-0.4%
CC(=O)NC(Cc1ccccc1C)C(=O)NC1CCN(c2nnnn2-c2ccccc2)CC1 (stereo not drawn)	8%	9	2%	2.7%
O=C(c1ccc(Br)cc1)N(Cc1nc2ccccc2c(=O)[nH]1)C1CCCC1	-9%	2	26%	-0.3%
COc1ccc(C(=O)OCCN2CCOCC2)cc1	39%	2	-19%	5.7%
O=C(O)c1cc(NCc2cccs2)ccc1N1CCOCC1	5%	2	-4%	11%
CCC(=O)N1CCN(c2ccc(NC(=O)c3ccc([N+](=O)[O-])o3)cc2)CC1	1%	13	-10%	3.4%
CCC1Sc2ccccc2N(CC(=O)NCCC(C)C)C1=O (stereo not drawn)	15%	6	-10%	5.0%
Cc1nn(-c2ccccc2)c2nc(C(Cl)(Cl)Cl)[nH]c(=O)c12	4%	-1	-1%	1.9%
O=C(c1ccc2c(c1)OCO2)N1CCC2(CC1)Oc1ccc(Cl)cc1C(=O)C21CC(c2ccc(Cl)cc2)=NO1 (stereo not drawn)	.	-5	-9%	.
C=CC[C@@H](CC(=O)N[C@H](CO)Cc1ccccc1)C(=O)N[C@H](C)COC(=O)[C@@H](CC=C)CC(=O)OC(C)(C)C	10%	.	.	0.3%
CCn1c(=O)cc(SCC(=O)NCCN2CCN(Cc3ccccc3)CC2)c2ccccc21	-23%	4	-7%	-4.3%
Cc1ccc(C(=O)CCC(=O)Nc2ccccc2C)cc1C	-3%	.	-9%	-1.2%
Cc1cccc(C(=O)NNC(=O)c2ccc(O)cc2)c1	-8%	.	-10%	0.2%

The list goes on; the last 2 above are carried over.
SMILES	Rango release inh	GLA inh pH 4.5	miR-21 FLuc	Rango complex inh
Cc1ccc(C(=O)CCC(=O)Nc2ccccc2C)cc1C	-3%	.	-9%	-1.2%
Cc1cccc(C(=O)NNC(=O)c2ccc(O)cc2)c1	-8%	.	-10%	0.2%
O=C1CS/C(=N/N=C/c2c[nH]c3ccccc23)N1	8%	2	-28%	0.1%
Cc1ccc(NC(=S)NCCc2c[nH]c3ccccc23)c(C)c1	-18%	0	16%	-5.6%
COc1ccc(C2=NOC(C(=O)Nc3cccc(O)c3)C2)cc1 (stereo not drawn)	-10%	.	-7%	-3.6%
CC12CCC(C(=O)Nc3ccccc3N3CCOCC3)(CC1=O)C2(C)C (stereo not drawn)	0%	-6	-8%	-1.2%
COc1ccc(NC(=O)C2(S(=O)(=O)c3ccc(C)cc3)CC2)cc1OC	-13%	.	-7%	3.2%
O=C(Cn1cnc2ccccc2c1=O)Nc1nnc(SCc2ccc(Cl)cc2)s1	-27%	-4	0%	-1.2%
Cc1ccc(OCCCCNC(C)c2ccccc2)c(C)c1 (stereo not drawn)	-16%	.	3%	-2.2%
CC(=O)Nc1ccc(N2C(=O)c3cccc(NC(C)=O)c3C2=O)cc1	12%	8	0%	-0.1%
CS(=O)(=O)N(CC(=O)N1CCN(Cc2ccccc2)CC1)c1ccc(F)cc1	-11%	.	2%	3.2%
C#CCOCCOCCOCCNc1nc(N2CCOCC2)nc(N2CCN(C(=O)Cn3cc(CCCCN)nn3)CC2)n1	-5%	.	.	-1.3%
O=C(c1ccc(C(F)(F)F)cc1)C1CCCN(C(=O)c2csnn2)C1 (stereo not drawn)	-14%	-1	-2%	?
COc1ccccc1NC(=O)CSc1nnc(C2CCCCC2)n1C	2%	3	-1%	-1.7%
[O-]c1c[n+](-c2ccc(-[n+]3cc([O-])on3)cc2)no1	-14%	6	-3%	7.3%
O=C(NCc1nc2ccccc2[nH]1)C1=C[C@@H](c2csc3ccccc23)C[C@@H](OCc2ccc(CO)cc2)O1	-5%	-5	20%	?
CCOC(=O)c1ccc(NC(=S)N2CCSC2c2c(F)cc(F)cc2F)cc1 (stereo not drawn)	9%	1	9%	-0.6%
CCOC(=O)CNC(=O)c1ccc(Cl)s1	-1%	2	-2%	-0.5%
COc1cc(C(=O)NCc2ccco2)c(Br)c(OC)c1OC	-3%	2	-2%	2.7%
Cc1sc2ncnc(-n3nnc4ccccc43)c2c1C	9%	-2	-10%	4.8%
CCNc1nc(NCC)nc(Oc2ccc(N)cc2)n1	-14%	0	0%	?
COc1ccc(-c2cc3nc(C)c(CCC(=O)NC(C)CCc4ccco4)c(C)n3n2)c(OC)c1 (stereo not drawn)	13%	-7	-2%	0.0%
O=C(CSc1nccn1Cc1ccco1)Nc1ccc(F)cc1	6%	.	-18%&-19%	1.4%
Cc1ccc(Cl)cc1NC(=O)N(C)CCO	0%	0	0%	-1.9%
CCc1ccc(N(CC(=O)NC)S(C)(=O)=O)cc1	8%	-12	1%	2.2%
C[N+]1=C(/C=C/Nc2ccccc2Cl)C(C)(C)c2ccccc21	-24%	-3	0%	?
O=C(CCn1c2c(c3ccccc31)CCCC2)NNC(=O)c1cccc([N+](=O)[O-])c1	-7%	-1	-4%	-5.0%

Profiles, quoted from the list:
`O=C(CCn1c2c(c3ccccc31)CCCC2)NNC(=O)c1cccc([N+](=O)[O-])c1` in the list: Rango release inh: -7%; GLA inh pH 4.5: -1; miR-21 FLuc: -4%; Rango complex inh: -5.0%
`COc1ccc(C2=NOC(C(=O)Nc3cccc(O)c3)C2)cc1` (stereo not drawn) in the list: Rango release inh: -10%; GLA inh pH 4.5: .; miR-21 FLuc: -7%; Rango complex inh: -3.6%

Continued:
SMILES	Rango release inh	GLA inh pH 4.5	miR-21 FLuc	Rango complex inh
O=[N+]([O-])c1cc(/C=N/O)ccc1Oc1ccccc1Cl	?	4	-97%	1.6%
Cc1cc([N+](=O)[O-])nn1CC(=O)NCc1ccccc1	-12%	.	-8%	2.2%
CCc1ccc(NC(=O)C(=O)NCCOc2ccccc2Cl)cc1	5%	-1	0%	-0.8%
O=C(CCCc1c[nH]c2ccccc12)N1CCN(S(=O)(=O)c2cccs2)CC1	-14%	-14	12%	-4.4%
CCN(CC)S(=O)(=O)c1ccc(N2CCOCC2)c(C(=O)O)c1	0%	8	1%	4.7%
Cc1c(Cl)cccc1NC(=O)C1CCN(c2cnccn2)CC1	1%	.	-1%	3.0%
CCC(=O)NC(=S)Nc1c(C)cc(Br)cc1C	-7%	1	8%	-2.6%
COc1ccccc1N(CC(=O)NC1CCCC1)S(=O)(=O)c1cccc(C(F)(F)F)c1	-3%	.	.	-0.2%
CCCCCCCCC1CC(C(=O)Nc2ccccc2)C(=O)O1 (stereo not drawn)	3%	.	.	-2.1%
Cc1cc(C2CCCCC2)n(O)c(=O)c1	-8%	1&-6	.	-4.0%
COc1cc2c(cc1NC(=O)CSc1ccc(Cl)cc1)oc1ccccc12	-10%	4	-6%	-3.3%
Cc1cc(F)ccc1N1CCC(N2CCN(C(C)C)C(CCO)C2)CC1 (stereo not drawn)	1%	1	-4%	-6.3%
CCc1cccc(NS(=O)(=O)c2ccc3c(c2)NC(=O)C(C)S3)c1 (stereo not drawn)	3%	.	18%	-0.7%
Cc1cccc(NCC(=O)N/N=C/c2cccc(Br)c2)c1	1%	4[21.1 µM]	-1%	4.1%

Filtered by structure, the entries above with a CF3 group
SMILES	Rango release inh	GLA inh pH 4.5	miR-21 FLuc	Rango complex inh
Cc1ccccc1SCC(=O)Nc1cc(C(F)(F)F)ccc1N1CCOCC1	12%	.	.	1.0%
O=C(c1ccc(C(F)(F)F)cc1)C1CCCN(C(=O)c2csnn2)C1 (stereo not drawn)	-14%	-1	-2%	?
COc1ccccc1N(CC(=O)NC1CCCC1)S(=O)(=O)c1cccc(C(F)(F)F)c1	-3%	.	.	-0.2%
